# Vaccinia Venus = inhibitors of vaccinia virus (Venus reporter); actives 0.46% (n = 330,000); Potency, µM (titrated, usually from 36.5 µM), for the others: top-dose activity change, negative = inhibition, actives largely listed as inhibitors; Vaccinia virus Venus reporter expression, fluorescence; active means well fitted inhibition curve with a large enough effect; inconclusive means small, poorly fitted or top-dose-only effect; inactive means no such curve, though single readings can be large or run the other way; tested in A549 cells; further: nearly all actives have a fitted effect of over 30% in size; inactives centre near -10
# VACV mCherry inh = vaccinia inhibition (mCherry reporter). Vaccinia virus mCherry reporter infection, fluorescence; about a quarter of the inactives have no number. Potency, µM (top dose mostly 36.5 µM), for inactives: top-dose activity change, negative = inhibition, actives largely listed as inhibitors. actives 0.63% (n = 310,000). AID 720579; active = well fitted inhibition curve with a large enough effect; inconclusive = small, poorly fitted or top-dose-only effect; inactive = no such curve, though single readings can be large or run the other way; tested in A549 cells; further: nearly all actives have a fitted effect of over 35% in size; inactives centre near -10
# * marks the source's active call; other numbers are inactive results; i = inactive; ? = inconclusive; . = not tested or not shown; [ ] = remark or other dose. On the % scale 0 is the no-effect control and ±100 the full control effect; potency means the concentration at half of the fitted maximal effect.
SMILES,Vaccinia Venus,VACV mCherry inh
O=c1[nH]c2ccccc2cc1CN(CC1CCCO1)S(=O)(=O)c1ccccc1 (stereo not given),-10.0%,i
O=S(=O)(c1ccc(OCC(O)CN2CCN(c3ccccc3Cl)CC2)cc1)N1CCOCC1 (stereo not given),-19.8%,-18.7%
O=C(C[C@H]1C[C@H](C(=O)N2CCOCC2)[C@@]2(CCC3CCCC3)c3[nH]c4cc(-c5ccco5)ccc4c3CCN2C1=O)NCCN1CCOCC1,?,?
O=C(Nc1ccc(F)cc1)Nc1csc2ccccc12,?,?
COc1cc(CN2CCN(C(=O)CC(C)C)CC2)cc(OC)c1O,-5.5%,-12.2%
O=C(Cn1ccc(NC(=O)OCc2ccccc2)nc1=O)NCc1ccccn1,-8.9%,i
Cc1ccc(C(=O)NCc2nnnn2-c2ccc(C)c(C)c2)cc1,-5.3%,-14.8%
O=C(NCc1ccc(F)cc1)C(=O)NCC1OCCN1S(=O)(=O)c1cccs1 (stereo not given),?,-17.2%
CC(=O)c1sc(NC(=O)CSCc2c(C)noc2C)nc1-c1ccccc1,-13.8%,-6.5%
Cc1cc(C)nc(N/N=C/c2cn[nH]c2-c2ccc(F)cc2)n1,-13.2%,i
COCCCNC(=O)Cn1ncc2c(=O)oc3ccccc3c21,-6.5%,-17.9%
O=C1COc2cc(O)ccc21,-9.1%,i
CCOC(=O)c1c(C)oc2c1c(C=NCCC(=O)O)c(O)c1ccccc12,-11.0%,?
O=C(Nc1cccc(/C=C/c2ccccn2)c1)c1cc(Cl)ccn1,3.3%,2.9%
Cc1ccc(OCC(=O)NCCNC(=O)COc2ccc(C)cc2)cc1,-10.4%,-2.2%
O=C1CCCN1Cc1ccccc1,-12.7%,0.0%
CCO[C@@H]1OC(C(=O)NCc2nc3ccccc3[nH]2)=C[C@H](c2ccccc2)[C@H]1CCCO,-23.0%,i
Cc1ccc(OCC(=O)Nc2cccc(C(=O)OCc3cc(=O)n4nc(C)sc4n3)c2)cc1,-4.6%[7.34 µM],-6.5%[7.34 µM]
COc1cc(C2C(C(=O)c3ccc(C)o3)=C(O)C(=O)N2Cc2cccnc2)ccc1O (stereo not given),-7.1%,-11.8%
CC(=O)NCc1ccc(S(=O)(=O)N/N=C/c2ccc(Br)cc2)cc1,6.1%,i

# Next section; it opens with the three that closed the last part.
SMILES,Vaccinia Venus,VACV mCherry inh
Cc1ccc(OCC(=O)Nc2cccc(C(=O)OCc3cc(=O)n4nc(C)sc4n3)c2)cc1,-4.6%[7.34 µM],-6.5%[7.34 µM]
COc1cc(C2C(C(=O)c3ccc(C)o3)=C(O)C(=O)N2Cc2cccnc2)ccc1O (stereo not given),-7.1%,-11.8%
CC(=O)NCc1ccc(S(=O)(=O)N/N=C/c2ccc(Br)cc2)cc1,6.1%,i
Cc1cc2c(cc3c(SCc4ccc(Cl)cc4)nncn32)o1,-29.6%,-20.8%
COC(=O)C(C(=O)OC)c1ncccc1[N+](=O)[O-],-16.0%,-0.1%
COc1ccc(C=C(C(=O)O)c2ccc(OC)cc2)cc1,-7.3%,i
Cc1ccc(Nc2[nH]c(=O)c3ccccc3c2C(=O)c2ccccc2)cc1,-0.3%,-26.9%
CCOC(=O)CSc1nnnn1-c1cc(OC)c(Cl)cc1OC,4.0%,-5.2%
O=C(COC(=O)CSc1ccc(F)cc1)NCC1CCCCC1,-7.7%,-3.8%
O=C1N=C2SCCN2/C1=C\c1c(Cl)cccc1Cl,-9.7%,-20.6%
CN(C)C(=O)c1cc2cc([N+](=O)[O-])ccc2s1,-10.8%,.
O=C(NCc1ccccc1Br)c1cccc2c1C(=O)c1ccc(N3CCC(Cc4ccccc4)CC3)cc1S2(=O)=O,29.3%,i
O=C(/C=C1\SC(=O)N(CC(=O)Nc2ccc(Cl)cc2)C1=O)Nc1ccc(F)cc1,-3.6%,-13.8%
CCCc1nc(NCc2ccc3c(c2)OCO3)c2nnn(Cc3ccccc3Cl)c2n1,-8.9%,-15.1%
N#Cc1nc(COc2ccccc2F)oc1N1CCCCCC1,6.9%,3.5%
COc1cc(/C=C2\SC(c3ccc(C)cc3)=NC2=O)ccc1O,-18.9%,-1.2%
CCOCCCn1c(SCC(=O)Nc2ccc(CC)cc2)nc2ccccc2c1=O,-11.0%,-13.7%
O=C(CCc1nnc(CCCCc2ccccc2)o1)NC1CCCC1,-6.3%,i
CCN(CC)c1ccc(/C=C(\C#N)C(N)=S)cc1,-3.4%,-29.4%
Cc1oc(-c2ccccc2)nc1CNC(=O)Nc1ccccc1,-16.6%,-9.3%
COC(=O)c1ccc(CN2CCCC(CO)(Cc3ccc(F)cc3F)C2)cc1 (stereo not given),-12.8%,-29.3%
O=C(c1ccc(S(=O)(=O)N2CCOCC2)cc1)N1CCN(c2cccc(Cl)c2)CC1,-5.7%,-29.8%
COc1ccccc1C1C(C(=O)c2ccco2)=C(O)C(=O)N1c1cc(C)on1 (stereo not given),-11.2%,i
O=C(N/N=C/c1ccc(OC(=O)c2ccco2)cc1)c1ccccn1,-14.8%,-5.8%
O=C(NNC(=S)NCCCN1CCOCC1)c1ccncc1,-0.3%,5.9%
CCCCN(C(=O)/C=C/c1ccco1)c1c(N)n(Cc2ccccc2)c(=O)[nH]c1=O,-0.9%,-3.5%
CCC(COC(C)=O)Nc1nc2c([nH]1)c(=O)n(C)c(=O)n2C (stereo not given),-15.2%,i
O=C(O)/C(=C\c1ccccc1Cl)c1ccc(S(=O)(=O)N2CCCCC2)s1,-7.3%,i
CCCCCCn1cc(CN(C)C2CN(Cc3cn(CCCCCC)nn3)S(=O)(=O)C2)nn1 (stereo not given),-9.3%,-5.5%
COC(=O)c1sc2nc[nH]c(=O)c2c1C,-9.5%,-12.1%
CCCOP(=O)(c1ccccc1)c1ccccc1,-28.4%,-13.6%
C/C(=N/NC(=O)C1CC1(c1ccccc1)c1ccccc1)c1ccco1 (stereo not given),-23.7%,?
O=C(NCCS(=O)(=O)N1CCN(c2ccc(F)cc2)CC1)c1ccco1,-4.3%,-13.3%
Cc1cc(NC(=O)C(Cl)c2ccccc2)no1 (stereo not given),-17.2%,-2.2%
Cc1nc2c(OCc3ccc(C#N)cc3)cccn2c1N(C)C(=O)CCC1CCCC1,-14.2%,13.3%
COc1cc(CC(NC(C)=O)C(=O)NC2CCN(C(=O)c3ccc(C)cc3)CC2)cc(OC)c1 (stereo not given),-7.6%,i
Cc1ccccc1C(=O)NNC(=O)CN1C(=O)c2ccccc2C1=O,0.4%,i
CCOC(=O)C1=CN(Cc2cccc(F)c2)S(=O)(=O)N(C)C1c1ccc(F)c(Cl)c1 (stereo not given),-13.0%,i
O=S(=O)(Nc1ccccc1)c1ccc(Oc2ncc(C(F)(F)F)cc2Cl)cc1,?,?
CCc1nnc(NC(=O)CCC(=O)Nc2ccc(Cl)cc2)s1,-11.4%,i
O=C(Nc1ccccc1Br)C1CCN(S(=O)(=O)c2cccs2)CC1,-12.0%,-21.6%
COc1ccc(-c2[nH]ncc2CNCC(C)(C)N2CCOCC2)cc1F,1.9%,1.7%
Cc1cc(C)n(CCSCC(=O)O)n1,-2.6%,-12.4%
CCOc1ccc(-c2cc(C)n3nc(C(=O)Nc4ccc(C)c(C)c4)cc3n2)cc1,?,?
Nc1c(C(=O)Nc2ccccc2)c2nc3ccccc3nc2n1-c1ccc(O)cc1,?,?
CCCn1nnc(NC(=O)c2ccco2)n1,-10.1%,-6.0%
CCN(CC)S(=O)(=O)c1cc(C(=O)N=c2sccn2C)ccc1OC,-17.8%,-10.2%
CC(C)(C)c1ccc(S(=O)(=O)N2CCSC2)cc1,-10.7%,i
Cc1cccc(-c2nc(S(=O)(=O)c3ccc(F)cc3)c(N3CCN(c4ccccc4)CC3)o2)c1,-13.2%,-17.3%
COc1ccc(C(=O)NC(=S)NNC(=O)c2ccc(NC(=O)C(C)C)cc2)cc1,-1.7%,-4.7%
COc1ccc(OC)c(NC(=O)c2nc(S(=O)(=O)Cc3ccccc3)ncc2Cl)c1,-7.7%,-0.9%
O=C(NCc1nnc(SCc2ccccc2)n1-c1ccc(F)cc1)C12CC3CC(CC(C3)C1)C2,?,-4.8%
CC(=O)c1ccc(OCC(=O)NC(=O)NC2CCCCC2)cc1,-6.6%,i

# Next records:
SMILES,Vaccinia Venus,VACV mCherry inh
CC(=O)c1ccc2c(c1)C1C(Cl)C(Sc3ccccc3[N+](=O)[O-])CC1C(c1ccccc1[N+](=O)[O-])N2 (stereo not given),-23.2%,-16.3%
COc1ccc(C(C)=O)cc1CSc1nc2cc(C(=O)O)ccc2c(=O)n1Cc1ccccc1,-16.0%,-9.9%
Cc1cc(=O)oc2cc(OCC(=O)N3CCc4ccccc4C3)ccc12,-13.7%,.
CCC(NC(=O)Nc1ccc(O)cc1)(C(F)(F)F)C(F)(F)F,4.1%,.
COc1ccccc1C(=O)Nc1nnc(SCC(=O)Nc2ccc3c(c2)oc2ccccc23)s1,-16.2%,-2.1%
C=C(C(=O)O)C(CCCCCC)C(=O)O (stereo not given),-9.0%,-3.2%
CN(C)c1ccc(CNC(=O)CC[C@H]2O[C@@H](n3cnc4c(NC(=O)c5ccccc5)ncnc43)[C@H](O)[C@@H]2O)cc1,0.4%,-16.9%
Cc1oc(-c2ccccc2Cl)nc1CSc1nc2ncccc2[nH]1,-20.3%,-16.2%
CCN(CC)N=Nc1ccc(S(N)(=O)=O)cc1,2.9%,-3.3%
COc1ccc(-n2c(C)c(C)c3c(NCCCN(C)C)ncnc32)cc1,-24.2%,-12.5%
Cc1nc(C(F)(F)F)ccc1C(=O)N1CCC1(C)C(=O)NS(=O)(=O)c1ccccc1Cl (stereo not given),7.0%,i
Cc1ccc(Cl)cc1-n1ncc2c(N3CCC(C)CC3)ncnc21,-20.3%,-17.6%
CCC(C)[C@H](NC(=O)CCn1nnc2ccccc2c1=O)C(=O)O (stereo not given in full),-5.1%,i
CC(C)NC(=O)C1CCN(c2ccc(S(=O)(=O)N3CCOCC3)cc2Cl)CC1,-14.6%,-1.2%
Cc1ccccc1-n1ncc2c1CC(C)(C)CC2NC(=O)CN1CCCC1=O (stereo not given),-3.2%,i
CN(C1CCCC1)C1CCN(C(=S)Nc2cc(F)cc(F)c2)CC1,-12.7%,i
COC(=O)C1C(c2ccc(N(C)C)cc2)C(C(=O)OC)S(=O)(=O)CS1(=O)=O (stereo not given),11.5%,i
CCCCn1c(N)c(N(CCC(C)C)C(=O)CC2CCCC2)c(=O)[nH]c1=O,-8.1%,-10.7%
Cc1c(CCO)c(=O)n2n1CCCC2,-3.9%,i
COc1ccc(CSc2nnc(-c3ccncc3)n2N)cc1,-11.7%,-2.8%
O=C(/C=C/Nc1ccccc1C(F)(F)F)c1ccco1,7.0%,3.1%
O=P(O)(O)C12CC3CC(CC(C3)C1)C2,-5.4%,-5.3%
O=C(/C(=N\Nc1ccccc1)Sc1nnnn1-c1ccccc1)c1ccccc1,2.4%,-12.2%
CCN(CC)C(=O)C1=C(C)N(Cc2ccccc2)C(=O)C(CC(=O)NCCc2ccccn2)C1 (stereo not given),-13.6%,i
Cc1ccc(-n2ncc3c(Nc4cccc(C)c4C)ncnc32)cc1,-16.0%,-13.5%
COc1ccc(OC)c(S(=O)(=O)NCCc2csc3nc(-c4ccccc4)nn23)c1,-2.2%,-4.5%
Cc1ccc(NC(=O)C2c3ccccc3-c3ccccc32)cc1,-2.4%,i
COCCOc1cc(N2C(=O)CSCC2=O)c(Cl)cc1Cl,-9.6%,-9.3%
COc1cc(/C=N/NC(=O)c2ccc(COc3ccccc3Cl)o2)cc(Br)c1O,-22.5%,-26.9%
COc1ccccc1-n1c(=O)c2c3c(sc2n2c(SC(C)C)nnc12)CCC3,-8.7%,.
CC(=O)Nc1ccc(S(=O)(=O)N2CCCC(C(=O)O)C2)cc1 (stereo not given),-5.1%,-14.8%
O=C(NCCc1nnc2ccc(NCCCN3CCOCC3)nn12)c1ccccc1,-5.8%,-12.2%
O=C(CN1C(=O)NC(CCc2ccccc2)C1=O)NC1CC1 (stereo not given),2.6%,-6.6%
C=CCC1([C@@H](C)CCC)C(=O)NC(=O)NC1=O,-9.7%,-0.2%
COc1ccc(S(=O)(=O)N2CCN(CC(O)COc3ccc(C#N)cc3)CC2)cc1OC (stereo not given),-16.2%,-16.6%
O=C(C[n+]1cccc(/C=N/O)c1)N1CCCCCC1,-3.7%,i
CC1=C(C(=O)OC(C)C)[C@@H](c2cccc3nonc23)C([N+](=O)[O-])=C(C)N1,-13.4%,i
CNCCCC1c2ccccc2C=Cc2ccccc21,?,-10.0%
N#CC1=C(N)N(c2ccc(Cl)c(Cl)c2)C(=O)C1,0.1%,-5.9%
CC(C)OC(=O)C1C(=O)CC(C)(O)C(C(=O)OC(C)C)C1c1ccc(F)cc1 (stereo not given),-23.5%,i

# One compound at a time (already shown):
# C=CCC1([C@@H](C)CCC)C(=O)NC(=O)NC1=O is listed with Vaccinia Venus: -9.7%; VACV mCherry inh: -0.2%
# COc1ccc(S(=O)(=O)N2CCN(CC(O)COc3ccc(C#N)cc3)CC2)cc1OC (stereo not given) is listed with Vaccinia Venus: -16.2%; VACV mCherry inh: -16.6%

# Further entries.
SMILES,Vaccinia Venus,VACV mCherry inh
COC(=O)c1cccc(C(=O)N2CCCC(C(=O)c3cc(F)ccc3F)C2)c1 (stereo not given),-14.1%,-3.1%
CN(CC(=O)Nc1cccc2ccccc12)C(=O)/C=C/c1cccs1,?,i
CC(C)CC(COCc1cccc(Cl)c1)N1CCN(C(=O)c2ccc(C(F)(F)F)cc2)CCC1=O (stereo not given),-29.8%,i
COCCNC(=O)c1cc(-c2ccccc2)n(CC2CC(c3ccc(OC)cc3)=NO2)n1 (stereo not given),-9.2%,16.1%
CC(Oc1ccc(Cl)cc1)C(=O)NCCCn1ccnc1 (stereo not given),-12.1%,i

# Not a hit list; about 0.87% have a hit in one of these screens.
